# INS promoter inh = TRM-6 insulin promoter activity inhibition. inhibition, % at 2 µM. AID 1273. TRM-6 cells (human fetal islet line), insulin promoter-eGFP reporter, imaging; reporter expression induced with tamoxifen. 130,000 tested, 0.9% active;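 active means inhibition above the mean plus 3 SD, with well images judged a real hit on visual review, cut at about 60% in these data, passing the limit was not always enough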
# PKD1 kinase inh = blocks activity of human protein kinase D1 | Q15139 | PKD1 kinase fluorescence polarization assay | inhibition, %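 (about 10 µM by stock and volumes)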 | 200,000 tested, 0.056% active | AID 797;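 active means inhibition of 50% or more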;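 further: controls were vehicle for no effect and a reference inhibitor for full effect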
# HSV replic up = increases HSV replication in cells; maximum fold increase; AID 1956; 220,000 tested, 0.005% active; HSV replication augmentation in cells, fold increase;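 active means peak rise of 1.5-fold or more in the series; tested in PC3 cells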;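 further: first round at 10 µM; read as green reporter fluorescence; hits show the peak of a series up to 25 µM; 1 = signal of infected wells without compound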
# GALR2 ag = agonists of human galanin receptor 2 (GALR2); O43603; GALR2-expressing cells, agonist activation read-out; activation, %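 (tested at 5 µM)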; 140,000 tested, 0.48% active; AID 803;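 active means above mean plus 3 SD of all compounds, about 5% in these data, not always enough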;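 further: 0% = vehicle buffer wells and 100% = reference agonist at full effect; tested in CHO reporter cells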
# RGS16-Gao HTS = RGS16-Galphao interaction regulator (human). bead-based flow cytometry RGS16-Galphao binding, fluorescence; actives lie on both sides. O15492+P09471. binding response (% of control), % at 10 µM. 220,000 tested, 0.38% active. AID 1441;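 active means below 25% or above 175%, edge rows of some plates excepted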;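 further: Galphao activated by GDP with aluminum fluoride before binding; 100% = wells without compound and 0% = beads without RGS; some results beyond the cut were filed as inactive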
# Target sequence (O15492 whole entry, looked up): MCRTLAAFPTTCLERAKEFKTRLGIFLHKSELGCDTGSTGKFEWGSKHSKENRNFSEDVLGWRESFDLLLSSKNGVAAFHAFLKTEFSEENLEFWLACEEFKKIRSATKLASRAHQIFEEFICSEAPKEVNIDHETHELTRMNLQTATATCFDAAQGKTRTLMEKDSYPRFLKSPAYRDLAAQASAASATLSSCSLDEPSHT
# Target sequence (P09471 whole entry, looked up): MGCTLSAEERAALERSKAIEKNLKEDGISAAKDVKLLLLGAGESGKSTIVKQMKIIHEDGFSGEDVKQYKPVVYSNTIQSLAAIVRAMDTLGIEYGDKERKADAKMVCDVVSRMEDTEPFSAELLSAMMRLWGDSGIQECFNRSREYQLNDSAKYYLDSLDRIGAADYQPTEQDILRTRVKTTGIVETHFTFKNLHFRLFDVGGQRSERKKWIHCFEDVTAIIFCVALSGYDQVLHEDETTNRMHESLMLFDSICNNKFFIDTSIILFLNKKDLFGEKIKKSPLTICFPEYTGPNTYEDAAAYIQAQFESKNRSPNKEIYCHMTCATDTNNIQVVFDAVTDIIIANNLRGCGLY
# INS promoter inh cell count = second read-out of INS promoter inh, no call of its own (marks repeat the call); normalized cell count, %; measured here: cell count, toxicity; reference of the scale not given here;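 cells exposed to compound for 48 h; stained nuclei by imaging scaled within each plate; lower means fewer cells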
# HSV replic up primary fold = further read-out of HSV replic up, marked with its call; fold increase; compound at 10 µM; measured here: primary screen fold increase 10 uM; tested in PC3 cells;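 GFP signal in the first replicate; 1 = infected wells without compound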
# The depositor's hits bear a star; i = inactive; . = not tested or not shown; & = joins results of further samples; [ ] = dose if it differs, or a comment.
structure	INS promoter inh cell count	INS promoter inh	HSV replic up primary fold	RGS16-Gao HTS	GALR2 ag	PKD1 kinase inh	HSV replic up
COc1ccc(/C=C2/SC(=S)N(CCC(=O)O)C2=O)cc1	129	-11	0.95	47	-0.4	1	i
CCOc1ccc(NC(=O)CCn2cccc2)cc1	.	.	0.92	110	-0.4	-6	i
CCOC(=O)c1ccc(-n2c(C)nc3c(cnn3-c3ccccc3Cl)c2=O)cc1	159	6	0.94	102	-0.1	0	i
Cc1ccccc1NC(=O)C1CCC(C)(C(=O)O)C1(C)C (stereo not drawn)	100	-125	0.92	94	-0.8	-5	i
Cc1oc(-c2ccccc2Cl)nc1CN1CCCCC1c1cccnc1 (stereo not drawn)	.	.	0.96	96	.	8	i
CC(=O)Nc1nonc1NC(=O)CSC1=NCCS1	44	-50	.	100	-0.5	-11	.
CN1CCN(c2nc3c(c(=O)[nH]c(=O)n3C)n2CCOc2ccccc2)CC1	85	-8	0.89	97	-0.9	-1	i
Cc1c(NC(=O)CN2CCN(c3ccc(O)cc3)CC2)c(=O)n(-c2ccccc2)n1C	.	.	0.96	92	.	1	i
O=C(CNCc1ccc(F)cc1)Nc1ccccc1[N+](=O)[O-]	54	23	0.96	88	.	-4	i
COc1ccc(-n2c(SCC(=O)Nc3cc(C)on3)nc3c(c2=O)SCC3)cc1	.	.	0.91	355	-3.6	15	i
COc1ccc(-c2ccnc3c(C(=O)O)cnn23)cc1	.	.	0.94	102	.	0	i
Cc1ccc(C)c(N2CCN(C(=O)CN3C(=S)NC(C)(C)CC3C)CC2)c1 (stereo not drawn)	.	.	0.93	100	.	0	i
O=C(NC1C=CS(=O)(=O)C1)c1ccccc1 (stereo not drawn)	169	-17	0.93	108	.	0	i
CCc1nnc(NS(=O)(=O)c2ccc(N=Cc3c(C)[nH]n(-c4ccc(C)cc4)c3=O)cc2)s1	.	.	0.91	96	-4.0	-3	i
O=C(Nc1ccccc1C(=O)OCc1nnc(-c2ccccc2)o1)c1ccco1	.	.	0.93	105	-1.3	2	i
CCOCCCNc1ccc(-c2ccccc2)nn1	.	.	0.9	105	-2.6	-8	i
COc1ccc2cc(C(=O)C3CCCN(C(=O)/C=C/c4ccccn4)C3)ccc2c1 (stereo not drawn)	.	.	1.3	99	.	11	i
Cc1ccc(NC(=O)CSc2nnc(C)n2CC2CCCO2)cc1 (stereo not drawn)	.	.	0.93	96	.	-4	i
Cc1ccc(N2CCN(S(=O)(=O)c3ccc4c(c3)n(C)c(=O)c(=O)n4C)CC2C)cc1 (stereo not drawn)	108	17	0.85	103	-1.4	-6	i
Oc1ccc(C2=Nn3c(nnc3-c3ccco3)SC2)cc1O	48	-4	.	55	-1.8	18	.
Cc1ccc(C)c(NC2=C(Cl)C(=O)OC2OC(C)C)c1 (stereo not drawn)	111	7	0.99	101	.	-6	i
O=C(NN=C1CCCCCCC1)c1ccccn1	134	9	0.88	95	-2.9	-10	i
Cc1nc2nc(C)c(CCC(=O)NCCCN3CCN(c4cccc(Cl)c4)CC3)c(C)n2n1	140&56	0&11	0.98	107&103	-1.6	-9&-1	i
COc1ccc2c(c1OC)C(=O)OC2c1c(O)nc(SC)n(-c2ccccc2)c1=O (stereo not drawn)	58	-210	0.93	99	-1.2	-5	i
O=C(NNS(=O)(=O)c1ccc(Cl)cc1)c1cc(-c2ccccc2)n[nH]1	.	.	0.95	101	.	.	i
COc1ccccc1Oc1ccc(NC(=O)c2ccc(Cl)cc2)cc1	.	.	1.1	105	.	-7	i
CCOC(=O)N1CCN(C(=O)C2CCCN(Cc3nc(-c4ccc(Cl)cc4)oc3C)C2)CC1 (stereo not drawn)	.	.	.	101	-3.1	6	.
N#CCN1CCC(c2cc(-c3ccco3)n[nH]2)CC1	101	15	1.1	95	.	-8	i
COc1ccc(CCNC(=O)CC2SC(=NCCc3ccccc3)NC2=O)cc1OC (stereo not drawn)	48	-7	0.95	102	-0.8	2	i
CC(C)(C)c1nn(-c2ccccc2)c2[nH]c(=O)c(CNCc3ccc4c(c3)OCO4)cc12	155	9	0.58	91	-0.5	3	i
Cc1ccc(NC(=O)CCC2CC(C)(C)OC2=O)cc1 (stereo not drawn)	89	-23	.	98	.	-6	.
C#CCOC(=O)Nc1cc(C)n(-c2ccccc2)n1	.	.	1.2	92	.	.	i
COc1cccc(N2CCN(C3OC(=O)c4ccccc43)CC2)c1 (stereo not drawn)	101	-45	1	97	-3.5	-1	i
CCOC(=O)c1ccc2[nH]c3c(c2c1)CCCC3C(=O)OCC (stereo not drawn)	73	58	0.9	100	-1.6	4	i
COCCn1c(-c2ccc(OC)c(OC)c2)nc2ccccc21	58	-38	0.93	109	-1.7	-5	i
CC(C)c1nnc(NC(=O)c2cnccn2)s1	149	-105	0.73	137	-2.3	-6	i
COc1ccccc1N1CCN(/N=C/c2cc([N+](=O)[O-])ccc2Cl)CC1	40	-159	1	148	.	-6	i
Cc1ccc(S(=O)(=O)c2c(N)n(NC(=O)c3ccco3)c3nc4ccccc4nc23)cc1	.	.	1	94	-0.3	-13	i
O=C(O)/C(=C\c1ccc(Cl)cc1)c1ccc(F)cc1	114	27	1.1	106	.	-2	i
CCOc1ccc(S(=O)(=O)Nc2nc3ccccc3nc2N2CCN(C)CC2)cc1	.	.	0.93	106	-0.4	6	i
CC(=O)Nc1ccc(C(=O)CSc2ncn(-c3ccccc3)n2)cc1	80	-4	1.1	94	-1.8	8	i
COC(=O)c1ccc(COc2ccccc2/C=C(\C#N)C(=O)Nc2ccc(C)cc2C)cc1	.	.	0.76	131	-0.1	-9	i
CC(=O)c1ccc(Oc2ccc(C(C)=O)cc2)cc1	96	-45	0.91	103	-2.5	-5	i
O=C(NCc1ccco1)C12CC3CC(CC(C3)C1)C2	91	12	1.1	104	-3.2	-5	i
Cc1ccccc1C1C(C#N)=C2NC(=O)c3c(sc4c3CCCCC4)N2C2=C1C(=O)CC(C)(C)C2 (stereo not drawn)	.	.	.	101	-1.0	5	.
Cc1ccc(NS(=O)(=O)c2ccc(C)c(C(=O)N3CCN(C)CC3)c2)cc1	.	.	0.96	-37*	0.9	12	i
O=C(NNC(=O)C1CCN(S(=O)(=O)c2ccc(Cl)cc2)CC1)c1ccc(Cl)cc1	125	-25	0.97	101	-0.1	-2	i
CCOC(=O)CC(NS(=O)(=O)c1ccc(NC(C)=O)cc1)c1ccc(OCC)cc1 (stereo not drawn)	58	-48	0.99	94	-0.7	-6	i

# Fetched by compound from the list above, 3 records:
structure	INS promoter inh cell count	INS promoter inh	HSV replic up primary fold	RGS16-Gao HTS	GALR2 ag	PKD1 kinase inh	HSV replic up
Cc1ccc(NS(=O)(=O)c2ccc(C)c(C(=O)N3CCN(C)CC3)c2)cc1	.	.	0.96	-37*	0.9	12	i
O=C(NCc1ccco1)C12CC3CC(CC(C3)C1)C2	91	12	1.1	104	-3.2	-5	i
CCOC(=O)CC(NS(=O)(=O)c1ccc(NC(C)=O)cc1)c1ccc(OCC)cc1 (stereo not drawn)	58	-48	0.99	94	-0.7	-6	i

# Carrying on.
structure	INS promoter inh cell count	INS promoter inh	HSV replic up primary fold	RGS16-Gao HTS	GALR2 ag	PKD1 kinase inh	HSV replic up
O=C(Nc1ccccc1Cl)O/N=C/c1ccncc1	116	10	0.9	.	-2.9	-7	i
NC(=O)Cc1ccc(C(=O)c2ccc(F)cc2)s1	62	-18	1	111	.	-6	i
CN(C)c1ccc(-c2nnn(CC(=O)Nc3ccccc3N3CCOCC3)n2)cc1	.	.	.	94	-0.8	-12	.
Cc1c(-c2ccc(Br)cc2)[n+](=O)c2c(n1[O-])CCCCC2	.	.	0.83	102	.	.	i
Cc1ccc(NC(=O)CN2C(=O)S/C(=C\C(=O)Nc3ccc(Cl)cc3)C2=O)cc1	44	28	0.96	8.0*	1.6	-13	i
COC(=O)c1sc(C(F)(F)F)c(-c2ccccc2)c1S(=O)(=O)N1CCCC1	.	.	0.96	102	.	.	i
Cn1c(SCC(=O)N2CCOCC2)nc2sc3c(c2c1=O)CCCC3	95	21	0.93	92	-1.4	-5	i
COc1ccc(CC(=O)Nc2ccccc2N2CCOCC2)cc1OC	.	.	0.93	97	.	4	i
Cc1ccc(S(=O)(=O)NCCN2CCNC2=O)cc1	.	.	1.1	99	.	.	i
Cc1cccc2sc(NC(=O)[C@@H]3CCCN3C(=O)c3cccs3)nc12	91	21	1.1	211*[activator]	-1.2	12	i
O=C(COC(=O)c1cncc(Br)c1)Nc1nc(-c2ccc(F)cc2)cs1	.	.	1.1	102	.	.	i
CN(C)S(=O)(=O)c1cccc(NC(=S)Nc2ccc3cn[nH]c3c2)c1	.	.	0.82	97	.	20	i
Cc1cc(C)n2nc(C(=O)NCc3ccco3)cc2n1	.	.	1	107	.	1	i
O=C(CCC(=O)Nc1ccccc1)N/N=C/c1ccco1	74	-3	0.88	105	-0.3	3	i
COc1cccc(NC(=O)CSc2c3c(nc4ccccc24)CCCC3)c1	153	25	0.96	88	-1.8	-1	i
CN(Cc1ccc(OCC(O)CN(C)Cc2ccccc2)cc1)Cc1nccn1C (stereo not drawn)	.	.	0.83	112	.	.	i

# Sorted by molar mass (highest first): 6 of the compounds above.
structure	INS promoter inh cell count	INS promoter inh	HSV replic up primary fold	RGS16-Gao HTS	GALR2 ag	PKD1 kinase inh	HSV replic up
CN(Cc1ccc(OCC(O)CN(C)Cc2ccccc2)cc1)Cc1nccn1C (stereo not drawn)	.	.	0.83	112	.	.	i
COc1cccc(NC(=O)CSc2c3c(nc4ccccc24)CCCC3)c1	153	25	0.96	88	-1.8	-1	i
CN(C)S(=O)(=O)c1cccc(NC(=S)Nc2ccc3cn[nH]c3c2)c1	.	.	0.82	97	.	20	i
O=C(CCC(=O)Nc1ccccc1)N/N=C/c1ccco1	74	-3	0.88	105	-0.3	3	i
Cc1ccc(S(=O)(=O)NCCN2CCNC2=O)cc1	.	.	1.1	99	.	.	i
Cc1cc(C)n2nc(C(=O)NCc3ccco3)cc2n1	.	.	1	107	.	1	i
